CBX7 inh – inhibitors of human CBX7 binding to H3K27me3 peptide. AlphaScreen His6-CBX7 / biotin-H3K27me3 peptide binding; stronger effect = lower value. 66,000 compounds, 1.1% hits. AID 1224903. normalised signal (fraction of DMSO) (no concentration beside the values); in the data active = normalised signal below about 0.5;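 also: 100 nL library stock added to about 20 µL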
Target sequence (O95931 whole entry, looked up): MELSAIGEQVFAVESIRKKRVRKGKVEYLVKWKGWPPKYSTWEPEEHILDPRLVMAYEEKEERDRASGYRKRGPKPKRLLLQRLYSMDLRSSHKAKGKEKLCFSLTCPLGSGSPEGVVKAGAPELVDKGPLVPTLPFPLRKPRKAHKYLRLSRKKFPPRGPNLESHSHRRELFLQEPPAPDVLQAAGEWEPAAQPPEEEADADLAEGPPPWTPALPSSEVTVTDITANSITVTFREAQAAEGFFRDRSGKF
CBX7 inh z-score – recorded beside CBX7 inh, whose call it bears; z-score; measured here: z-score of CBX7 signal; some inactives read as strong as hits; reference of the scale not given here;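 same signal on another scale; lower means less binding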
* hit, by the source's call. Not all compounds are listed (hit frequency here may not be typical).

entry	mol	CBX7 inh	CBX7 inh z-score
1	COc1ccc(C2=NOC(C(=O)NC(C)(C)C)C2)cc1 (stereo not drawn)	0.987	-0.168
2	COc1c(C(=O)Nc2ccc(Cl)cn2)ccc2ccccc12	1.2	2.7
3	COc1ccc(NC(=O)NCCCN2CCN(c3cccc(Cl)c3)CC2)cc1	1.05	0.858
4	COc1ccc(NC(=O)c2cc3nc(-c4ccc(OC)c(OC)c4)cc(C(F)(F)F)n3n2)cc1	1.13	1.42
5	Oc1ccc(-c2nc(-c3c[nH]c4ccccc34)cs2)cc1	0.975	-0.296
6	Cc1nc2ccc(S(=O)(=O)NC(C(=O)Nc3ncccc3C)C(C)C)cc2s1 (stereo not drawn)	0.974	-0.96
7	O=C(NCCN1CCOCC1)c1cc(-c2cccs2)nc2ccccc12	1.28	2.36
8	Cc1cccc(CCNC(=O)C2CCC(=O)N2Cc2ccc(F)cc2)c1 (stereo not drawn)	1.04	1
9	Nc1nonc1-c1noc(Cc2ccc(Cl)cc2)n1	0.981	-0.217
10	CCc1ccc2c(c1)c(=O)c(S(=O)(=O)c1ccc(C)cc1)cn2CC(=O)Nc1cccc(Cl)c1	0.964	-0.501
11	O=C(NCc1ccc2c(c1)OCO2)C1CCN(C(=O)c2sccc2-n2cccc2)CC1	0.941	-1.4
12	CCCCNC(=O)CSc1nc2ccccc2[nH]1	1.03	0.939
13	COc1ccc(OCC(=O)Nc2nc(-c3ccc(C)cc3)cs2)cc1	0.932	-1.44
14	O=C(c1ccccc1)c1conc1C(=O)c1ccc(Br)cc1	1.07	0.703
15	COc1ccc(C2CC(=O)C3=C(C2)Nc2ccccc2NC3c2ccccc2Cl)cc1 (stereo not drawn)	0.923	-1.5
16	CCC(CO)NS(=O)(=O)c1cc(-c2nnc(OC)c3ccccc23)ccc1C (stereo not drawn)	0.958	-0.938
17	Cc1ccc(-n2c(Cc3cccn3C)nnc2SCC(=O)Nc2nc3ccc(C)cc3s2)cc1	1.1	2.44
18	COc1ccc(-n2cnc3cc(C(=O)NC4CCCCCC4)ccc32)cc1	0.905	-1.2
19	COc1ccc(OC)c(NC(=O)C2CCN(c3nnc(-n4cccc4)s3)CC2)c1	0.979	-0.847
20	Cc1ccc2c(c1)NC(=O)C(CC(=O)NC1CCCCCC1)O2 (stereo not drawn)	0.95	-1.18
21	CCOc1ccc(NC(=O)CSc2nc3nc(C)c(Cc4ccccc4C)c(C)n3n2)cc1	0.981	-0.18
22	COc1ccc(-c2cc(C(F)(F)F)n3nc(C(N)=O)c(Br)c3n2)cc1	1.11	1.11
23	CCCCCOc1ccc(C(O)(CCC)C(CN2CCCCC2)c2ccccc2)cc1 (stereo not drawn)	1.13	1.38
24	COc1ccccc1NCc1ccccc1NS(=O)(=O)c1ccc(C)cc1	0.898	-2.69
25	O=C(NCc1ccncc1)C(=O)NCc1ccccn1	1.01	0.379

Next section
entry	mol	CBX7 inh	CBX7 inh z-score
26	Cn1nc(-c2ccc(N3CCOCC3)c(NC(=O)c3ccc(Cl)cc3)c2)c2ccccc2c1=O	0.885	-3.28
27	COc1cccc(CNC(=O)c2cc(=O)[nH]c3ccc(S(=O)(=O)N4CCCC4)cc23)c1	1.03	0.378
28	Cc1ccc(NC2c3ccccc3C(=O)N2c2ccc(Cl)cc2)cc1C (stereo not drawn)	0.888	-3.02
29	COc1ccccc1C(=O)Nc1nc(-c2ccc(Oc3ccccc3)cc2)cs1	1.11	2.31
30	COc1cccc(NC(=O)Cn2cnc3sc(C)c(S(=O)(=O)N4CCC(C)CC4)c3c2=O)c1	1.13	1.31
31	COc1ccccc1NCc1nc2ccccc2n1Cc1ccccc1F	0.895	-2.9
32	Cc1nnc(Sc2cc(C(=O)NCCCN3CCC(C)CC3)c3ccccc3n2)s1	0.938	-0.668
33	Cc1ccc(-c2nnc(NCc3nc4ccccc4[nH]3)c3ccccc23)cc1S(=O)(=O)N1CCCCC1	0.8	-0.501
34	COc1ccc(C2=NOC(C(=O)NC3CCCCC3)C2)cc1OC (stereo not drawn)	1.04	1.64
35	CC(=O)Nc1cccc(Oc2ccc3c(c2)C(=O)N(c2cc(C)ccc2C)C3=O)c1	0.846	-2.19
36	COc1ccc(-n2nnc3c(=O)n(Cc4ccc(Br)cc4)cnc32)cc1	0.936	-1.24
37	CCOC(=O)c1cccc(C(=O)Nc2nc3ccc(C)cc3s2)n1	1.03	0.481
38	COc1ccc(-c2nc(CN3CCCC(C(=O)NCCN(CC(C)C)CC(C)C)C3)c(C)o2)cc1 (stereo not drawn)	0.961	-1.07
39	CCOC(=O)c1ccc(NC(=O)Nc2ccc3snnc3c2)cc1	1.03	1.02
40	Clc1ccc(-c2nc3cnccn3c2Nc2ccc3c(c2)OCO3)cc1	0.759	-3.02
41	Cc1ccccc1NC(=O)C(NS(=O)(=O)c1ccc2c(c1)CCC(=O)N2)c1ccccc1 (stereo not drawn)	1.05	1.62
42	CCOc1ccccc1C(=O)Nc1nc(-c2ccc(Cl)cc2)cs1	1.08	1.74
43	O=C(CCCn1c(=O)[nH]c2ccccc2c1=O)N1CCN(c2ncccn2)CC1	1.11	0.296
44	Cc1cccc(Cc2c(C)nc3nc(SCC(=O)NCCC(C)C)nn3c2C)c1	1.18	1.03
45	Cc1ccccc1CN1C(=O)c2ccccc2S(=O)c2ccc(C(=O)NCCN(C)C)cc21 (stereo not drawn)	1.03	1.56
46	COc1ccc(-c2[nH]c(-c3cccc(OC)c3)nc2SCC(=O)NC2CCCC2)cc1	0.967	-0.868
47	O=C(CN1CCN(Cc2ccccc2F)C1=O)NCc1ccccn1	0.886	-1.63
48	Cc1ccc2c(c1)C(c1ccccc1)N(C(=O)COc1ccc(Cl)cc1Cl)CC(=O)N2 (stereo not drawn)	0.872	-0.174
49	O=C(Cc1coc(-c2ccc(F)cc2)n1)NC1CCCCC1	0.794	-1.57
50	CCN1CCN(Cc2c(O)ccc3c(=O)c(-c4ccc(OC)c(OC)c4)c(C(F)(F)F)oc23)CC1	1.07	0.672

(cont.)
entry	mol	CBX7 inh	CBX7 inh z-score
51	Cc1nc2ccc(S(=O)(=O)NC(CC(C)C)C(=O)NCc3ccccc3)cc2s1 (stereo not drawn)	1.04	0.791
52	CCOC(=O)c1cnc2ccc(OC)cc2c1Nc1ccccc1C	0.772	-0.805
53	COc1ccc(/C=C/c2nc3ccccc3n2C)cc1	1.31	3.56
54	COc1ccc(-c2nc(SCC(=O)NC3CCCC3)c(-c3ccc(OC)cc3)[nH]2)cc1	0.763	-3.87
55	CCC1=Nc2cc(C(=O)N3CCN(c4cc(Cl)ccc4C)CC3)ccc2Sc2ccccc21	0.737	-0.603
56	COc1ccccc1NC(=O)c1sc2ncn(CC(=O)N3CCOCC3)c(=O)c2c1C	1.05	0.361
57	CC(=O)Oc1ccc(C(=O)Nc2ccc3oc(-c4ccc(Cl)cc4)nc3c2)cc1	1.03	0.0251
58	CC(C)OCCCNC(=O)Cn1nc(-c2ccc(Cl)cc2)ccc1=O	0.987	-0.692
59	COc1ccc(C2C(C(=O)NCCN(C)C)CCC(=O)N2c2ccc(OC)cc2)cc1 (stereo not drawn)	1.36	3.21
60	CCn1c(C(=O)N2CCCC(C(=O)NCCc3ccc(S(N)(=O)=O)cc3)C2)cc2sccc21 (stereo not drawn)	0.981	-0.556
61	COCCCNC(=O)CCNC(=O)Cn1ccc2ccccc2c1=O	1.01	0.255
62	Cc1ccc(C2CC(C(F)(F)F)n3nc(CO)cc3N2)cc1 (stereo not drawn)	0.971	-0.565
63	Cc1nc(Nc2cccc(C(F)(F)F)c2)c2c3c(sc2n1)CCCC3	1.26	11.6
64	CSc1cccc(NS(=O)(=O)c2ccc3c(c2)CCN3C(=O)C2CC2)c1	0.914	-2.43
65	Cc1ccc2c(c1)N(C)C(=O)CC(c1ccccc1)=N2	1.01	0.399
66	COc1ccc(-n2ncc3c(N4CCN(c5cc(C)ccc5C)CC4)ncnc32)cc1	1.05	0.159
67	O=C1c2ccccc2-c2nc(COc3ccccc3)cc3cccc1c23	0.931	-1.9
68	COc1ccc(NC(=O)c2sc3nc(-c4ccccc4)cn3c2C)cc1	1.07	1.36
69	Cc1ccc(S(=O)(=O)c2nc(-c3ccccc3Cl)oc2N(C)C)cc1	0.747	-2.48
70	COCCNC(=O)CCc1cn(Cc2ccccc2)c2ccccc12	1	0.0462
71	FC(F)(F)c1cc(-c2ccc(Cl)cc2)nc(-n2ccnc2)n1	1.05	0.703
72	Cc1nc2c(C(=O)NCCN3CCOCC3)cnn2c(C)c1Cc1ccccc1Cl	0.985	-0.636
73	Cc1ccc(OCCOCCOc2ccc(-c3nc4sc5c(c4c(=O)[nH]3)CCCC5)cc2)cc1C	0.961	-1.04
74	COc1cc(CN2CCN(Cc3ccc(Br)cc3)CC2)cc(OC)c1OC	1	0.026
75	Cc1ccc(-c2nc(NC(=O)CCN3C(=O)c4ccccc4C3=O)sc2C)cc1	0.965	-0.983

Remaining list, next part
entry	mol	CBX7 inh	CBX7 inh z-score
76	COC(=O)c1c(NC(=O)COc2ccccc2)sc2c1CCCC2	0.934	-1.31
77	CCCCc1ccc(NC(=O)Cn2cnc3c(nnn3Cc3ccc(C)cc3)c2=O)cc1	0.892	-1.77
78	Cc1ccc(NC(=O)c2cc3nc(-c4ccccc4)cc(C(F)(F)F)n3n2)cc1C	1.06	2.33
79	CCOC(=O)c1cnc2c(OC)cccc2c1NCc1ccccc1OC	0.995	-0.00617
80	Cc1noc(C)c1S(=O)(=O)N1CCCC(C(=O)Nc2cccc(F)c2)C1 (stereo not drawn)	1.06	0.538
81	COc1ccc(OC2C(=O)N(c3ccc(F)cc3)C2c2ccc(OC)c(OC)c2)cc1 (stereo not drawn)	0.896	-0.366
82	O=C(NCc1ccc(Cl)cc1)c1cccc(NC2=NC3CS(=O)(=O)CC3S2)c1 (stereo not drawn)	1.14	1.57
83	Cc1ccc(Cn2ccc(NC(=O)c3cc(-c4cccc(Cl)c4)on3)n2)cc1	0.895	-2.9
84	O=c1[nH]c(-c2ccccc2O)nc2sc3c(c12)CCCC3	0.89	-1.69
85	Cc1ccc(-c2nnc(N3CCOCC3)c3ccccc23)cc1S(=O)(=O)NCC1CCCO1 (stereo not drawn)	0.936	-0.076
86	CNC(=O)c1c(-c2c(Cl)cccc2Cl)noc1C	1.04	0.23
87	CC(=O)N1CCc2cc(S(=O)(=O)NCCCN3CCCCC3)ccc21	1.1	0.738
88	Cc1cc(N2CCN(c3ncccn3)CC2)nc2ccc(NC(=O)c3ccccc3Cl)cc12	0.912	-0.599
89	Cc1ccc(NC(=O)c2cc(-c3ccccc3)nc3ccccc23)cc1	0.964	-0.348
90	CN(C(=O)Cn1nc(Cc2cccnc2)c2ccccc2c1=O)c1cccc(C(F)(F)F)c1	0.998	-0.0781
91	Cc1nc2c(-c3ccccc3)c(C)nn2c(C)c1CCC(=O)NCCC(C)C	1.16	1.82
92	O=C(CC1CCCCC1)Nc1c2c(nn1-c1ccc(Cl)cc1)CSC2	0.987	-0.669
93	CC(=O)Nc1ccc(Nc2cc(C)nc3nnnn23)cc1	0.837	-2.18
94	Cc1ccc(C)c(NC(=O)CS(=O)(=O)Cc2nc(-c3ccccc3C)oc2C)c1	0.924	-0.267
95	CC(C)Oc1ccc(C(=O)Nc2ccc3oc(-c4cccnc4)nc3c2)cc1	1.09	3.2
96	Cc1ccc(C(=O)Nc2sc3c(c2C(=O)N2CCCCC2)CCC(C)C3)cc1 (stereo not drawn)	1.07	2.44
97	O=C1Nc2ccccc2SC(c2ccccc2)C1O (stereo not drawn)	0.193*	-10.4*
98	Cc1nnc(Nc2ccc3c(c2)OCCO3)[nH]c1=O	1.33	0.673
99	Cc1ccc(NC(=O)COc2cccc(C)c2)cc1	1.09	3.84
100	Cc1ccc2c(c1)NC(=O)C(CC(=O)NCc1ccccc1)O2 (stereo not drawn)	1.08	3.3

Retrieved by structure from the list above:
entry	mol	CBX7 inh	CBX7 inh z-score
43	O=C(CCCn1c(=O)[nH]c2ccccc2c1=O)N1CCN(c2ncccn2)CC1	1.11	0.296
35	CC(=O)Nc1cccc(Oc2ccc3c(c2)C(=O)N(c2cc(C)ccc2C)C3=O)c1	0.846	-2.19

Next part.
entry	mol	CBX7 inh	CBX7 inh z-score
101	Cc1cccc(NC(=O)C2CCN(S(=O)(=O)c3ccc4c(c3)CCC(=O)N4)CC2)c1	1.12	1.46
102	CCOC(=O)c1cc(-c2ccccc2)n(CCC(=O)Nc2cc(OC)ccc2OC)c1C	0.867	-2.4
103	O=C(Nc1ccccc1Cl)C1=CCN(S(=O)(=O)c2ccc(F)cc2)CC1	0.976	-0.445
104	CC1CC(C)CN(C(C(=O)NC2CCCC2)c2ccc(Cl)cc2)C1 (stereo not drawn)	0.996	-0.171
105	CCc1ccccc1Nc1cc(C(=O)NC(C)CC)c2ccccc2n1 (stereo not drawn)	1.09	1.44
106	Cc1onc(-c2ccccc2Cl)c1C(=O)NCCCN1CCOCC1	1.06	1.6

Among those listed so far, 4 have bromine:
entry	mol	CBX7 inh	CBX7 inh z-score
14	O=C(c1ccccc1)c1conc1C(=O)c1ccc(Br)cc1	1.07	0.703
22	COc1ccc(-c2cc(C(F)(F)F)n3nc(C(N)=O)c(Br)c3n2)cc1	1.11	1.11
36	COc1ccc(-n2nnc3c(=O)n(Cc4ccc(Br)cc4)cnc32)cc1	0.936	-1.24
74	COc1cc(CN2CCN(Cc3ccc(Br)cc3)CC2)cc(OC)c1OC	1	0.026

Quoted from the listing:
For CBX7 inh z-score, COc1ccc(NC(=O)NCCCN2CCN(c3cccc(Cl)c3)CC2)cc1 has 0.858
For CBX7 inh, O=C(NCc1ccc(Cl)cc1)c1cccc(NC2=NC3CS(=O)(=O)CC3S2)c1 (stereo not drawn) has 1.14

Source: PubChem (several laboratories)
